rRNA inh HTS = inhibitors of bacterial rRNA selective over humanized ribosomes | E. coli WT GFP vs humanized-ribosome RFP mutants, fluorescence, 24 h; hits give low values; DMSO median 0, no signal -100 | GFP signal change (wild-type ribosome), % (concentration not given with the values) | actives 1.6% (n = 350,000) | AID 720706;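 active = significant combined selectivity score with lowered wild-type GFP, culture density cut under 30%, mutant RFP and density less affected; inactive = any of these conditions unmet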; also: one replicate is shown; some compounds called inactive have numbers as strong as hits
rRNA inh HTS OD600 = second read-out of rRNA inh HTS, no call of its own (marks repeat the call); OD600 change, %; measured here: OD600 growth;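 optical density of the mix in the first replicate; 0 = DMSO median and -100 = no signal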
rRNA inh HTS RFP = second read-out of rRNA inh HTS, no call of its own (marks repeat the call); RFP signal change, %; measured here: RFP humanized mutant strains;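 first replicate; 0 = DMSO median and -100 = no signal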
* = called active by the depositor.

1	COc1cc(CNC(=O)c2cc(-c3ccc(F)cc3OC)n[nH]2)cc(OC)c1
2	C[C@@H]1CCCCO[C@H](CN(C)C(=O)CCC(F)(F)F)[C@H](C)CN([C@@H](C)CO)C(=O)c2cc(NC(=O)CCC(F)(F)F)ccc2O1
3	CNC[C@@H]1OCCCC[C@@H](C)Oc2ccc(NS(=O)(=O)c3ccccc3)cc2C(=O)N([C@H](C)CO)C[C@H]1C
4	CCOC(=O)C1(C)CCN1C(=O)c1cc(OC)c(OC)c(OC)c1 (stereo unspecified)
5	C[C@H](CO)N1C[C@H](C)[C@H](CN(C)Cc2ccc(Oc3ccccc3)cc2)Oc2c(NC(=O)Nc3cccc4ccccc34)cccc2C1=O
6	CC(C)C#Cc1ccc2c(c1)O[C@H](CN(C)C(=O)c1cccc(F)c1)[C@@H](C)CN([C@H](C)CO)S2(=O)=O
7	C[C@H](CO)N1C[C@H](C)[C@H](CN(C)Cc2ccccc2)Oc2cc(C#Cc3ccccn3)ccc2S1(=O)=O
8	C[C@@H]1CN([C@@H](C)CO)C(=O)Cc2cc(NC(=O)NC3CCCCC3)ccc2O[C@@H]1CN(C)S(C)(=O)=O
entry no.	1	2	3	4	5	6	7	8
rRNA inh HTS	-7	1	8	10	0	-4	-7	1
rRNA inh HTS OD600	-34	11	3	17	0	-10	-8	2
rRNA inh HTS RFP	-1.5	1.2	0.7	-0.1	-0.4	1.9	7.7	0.2

9	CO[C@@H]1CN(C)C(=O)c2cc(NS(=O)(=O)c3ccccc3)ccc2OC[C@H](C)NC[C@H]1C
10	C[C@@H]1CCCCO[C@@H](CN(C)C(=O)NC2CCCCC2)[C@@H](C)CN([C@H](C)CO)C(=O)c2cc(NC(=O)Nc3ccccc3)ccc2O1
11	C[C@@H]1CN([C@H](C)CO)C(=O)c2cc(C#CCN(C)C)cnc2O[C@H]1CN(C)C(=O)c1cccc(F)c1
12	O=C(NCc1ccccn1)C1CCN(C2CCN(Cc3cccc(F)c3)CC2)CC1
13	C[C@H](CO)N1C[C@H](C)[C@H](CN(C)S(=O)(=O)c2ccc(Cl)cc2)Oc2ccc(NC(=O)Cn3cnnn3)cc2C1=O
14	COc1ccccc1-c1ccc2c(c1)O[C@H](CN(C)S(=O)(=O)c1ccc(C)cc1)[C@@H](C)CN([C@@H](C)CO)S2(=O)=O
15	O=C(NCC[C@H]1CC[C@H](NC(=O)c2cnccn2)[C@H](CO)O1)c1ccc2c(c1)OCO2
16	COCC(=O)N(C)C[C@@H]1Oc2ncc(Br)cc2C(=O)N([C@@H](C)CO)C[C@@H]1C
entry no.	9	10	11	12	13	14	15	16
rRNA inh HTS	2	4	-1	15	0	1	-1	2
rRNA inh HTS OD600	-1	0	0	17	2	1	-3	-4
rRNA inh HTS RFP	0.0	-2.7	0.5	0.5	-3.1	-0.4	0.5	-2.1

17	CCC(=O)Nc1ccc2c(c1)OC[C@H](C)N(C(=O)c1ccc(F)cc1)C[C@@H](C)[C@H](OC)CN(C)C2=O
18	COc1ccc2c3c(n(C)c2c1)[C@H](CO)NCC31CN(S(=O)(=O)c2ccccc2)C1
19	C[C@@H]1CCCCO[C@H](CN(C)CC2CC2)[C@H](C)CN([C@@H](C)CO)C(=O)c2cc(NS(=O)(=O)c3cn(C)cn3)ccc2O1
20	C[C@@H]1CN([C@H](C)CO)C(=O)CCCn2nncc2CO[C@@H]1CN(C)C(=O)c1ccc2ccn(C)c2c1
21	Cc1ccccc1S(=O)(=O)NCC[C@H]1CC[C@H](NC(=O)C2CCOCC2)[C@H](CO)O1
22	C[C@H](CO)N1C[C@H](C)[C@H](CN(C)C(=O)C2CC2)OCc2cn(nn2)CCCC1=O
23	CCN(C[C@@H]1N[C@H](CO)[C@H]1c1ccc(-c2ccccc2)cc1)C(=O)COC
24	CCCN1C(=O)c2n[nH]c(C)c2C1c1ccc(Br)cc1 (stereo unspecified)
entry no.	17	18	19	20	21	22	23	24
rRNA inh HTS	2	-2	3	-1	0	3	-1	-3
rRNA inh HTS OD600	3	-13	6	3	4	3	-6	-1
rRNA inh HTS RFP	0.1	3.2	-0.4	2.2	-1.4	-0.1	0.8	8.8

Part of the list above with just rRNA inh HTS and rRNA inh HTS OD600.
entry	Molecule	rRNA inh HTS	rRNA inh HTS OD600
21	Cc1ccccc1S(=O)(=O)NCC[C@H]1CC[C@H](NC(=O)C2CCOCC2)[C@H](CO)O1	0	4
22	C[C@H](CO)N1C[C@H](C)[C@H](CN(C)C(=O)C2CC2)OCc2cn(nn2)CCCC1=O	3	3
23	CCN(C[C@@H]1N[C@H](CO)[C@H]1c1ccc(-c2ccccc2)cc1)C(=O)COC	-1	-6
24	CCCN1C(=O)c2n[nH]c(C)c2C1c1ccc(Br)cc1 (stereo unspecified)	-3	-1

Next entries.
25	C[C@H]1CN([C@@H](C)CO)C(=O)Cc2cc(NS(=O)(=O)c3cn(C)cn3)ccc2O[C@@H]1CN(C)CC1CCCCC1
26	COc1cccc(C(O)c2nc(-c3cccc(C(F)(F)F)c3)cs2)c1 (stereo unspecified)
27	O=C(NCc1ccc2c(c1)OCO2)[C@H]1[C@H](CO)[C@H]2Cn3c(cccc3=O)[C@@H]1N2Cc1ccncc1
28	CNC(=O)C[C@@H]1CC[C@@H]2[C@@H](COc3ccc(NC(=O)c4cccs4)cc3C(=O)N2C)O1
29	CN1C(=O)c2cc(NC(=O)Cc3cccs3)ccc2OC[C@@H]2O[C@@H](CC(=O)NCC3CC3)CC[C@H]21
30	CO[C@@H]1CN(C)C(=O)c2ccc(NC(=O)NC(C)C)cc2OC[C@@H](C)N(Cc2ccccn2)C[C@H]1C
31	C[C@@H]1CN([C@@H](C)CO)C(=O)c2ccccc2-c2ccccc2CO[C@@H]1CN(C)S(=O)(=O)c1ccc([N+](=O)[O-])cc1
32	C[C@@H]1CN([C@H](C)CO)C(=O)c2cc(-c3ccncc3)cnc2O[C@H]1CN(C)C(=O)c1ccc(F)cc1
entry no.	25	26	27	28	29	30	31	32
rRNA inh HTS	3	-61	0	4	2	-1	0	5
rRNA inh HTS OD600	-2	-76	0	3	7	-3	0	10
rRNA inh HTS RFP	-2.0	-16	-0.3	0.7	-2.0	-1.5	1.4	-4.2

33	O=C(Nc1ccc(Cl)cc1)N[C@@H]1CC[C@@H](CCNC(=O)c2ccccc2F)O[C@H]1CO
34	C[C@@H]1CN(C)C(=O)Cc2cc(N(C)C)ccc2O[C@@H]1CN(C)C(=O)OC(C)(C)C
35	C[C@H]1CN([C@@H](C)CO)C(=O)c2cccc(N(C)C)c2O[C@H]1CN(C)Cc1ccc(C(F)(F)F)cc1
36	C[C@@H]1CN([C@@H](C)CO)C(=O)Cc2cc(NC(=O)Cc3ccccc3)ccc2O[C@H]1CN(C)S(C)(=O)=O
37	CC(=NO)c1cc(Br)c2cccc3c2c1CC3
38	COc1ccc(NC(=O)Cn2c([N+](=O)[O-])cnc2C)c(OC)c1
39	C[C@@H]1CN([C@@H](C)CO)C(=O)c2cc(NC(=O)Cc3ccccc3)ccc2O[C@@H]1CN(C)S(=O)(=O)c1cccs1
40	C[C@@H]1CN([C@H](C)CO)C(=O)Cc2cc(N(C)C)ccc2O[C@H]1CN(C)C(=O)Nc1ccccc1
entry no.	33	34	35	36	37	38	39	40
rRNA inh HTS	-7	-1	-11	2	-41	12	-1	4
rRNA inh HTS OD600	-3	1	1	6	-40	7	-16	4
rRNA inh HTS RFP	3.0	0.3	-0.8	-0.5	-6.7	0.6	0.0	0.1

41	C[C@H]1CN([C@@H](C)CO)C(=O)c2cc(NS(=O)(=O)c3ccc(Cl)cc3)ccc2O[C@H]1CN(C)S(=O)(=O)c1ccccc1
42	C[C@@H]1CN([C@H](C)CO)C(=O)c2cc(C#Cc3ccc(F)cc3)cnc2O[C@@H]1CN(C)CC1CC1
43	CC1(C(=O)NS(=O)(=O)c2ccc(C#N)cc2)CCN1C(=O)CC1CCCC1 (stereo unspecified)
44	CCCS(=O)(=O)NC(=O)C1(C)CCCN(C(=O)c2ccccc2OC)C1 (stereo unspecified)
45	COc1ccc([C@@H]2CC=CC[C@@H](C)Oc3ccccc3C(=O)N(C)[C@@H](C)C(=O)N2)c(OC)c1 (mixture of isomers)
46	CC(C)NC(=O)Nc1ccc2c(c1)C(=O)N([C@@H](C)CO)C[C@@H](C)[C@@H](CN(C)S(=O)(=O)c1ccccc1)OCCCC[C@@H](C)O2
47	CCNC(=O)C[C@H]1CC[C@H]2[C@H](COc3ccc(NC(C)=O)cc3C(=O)N2C)O1
48	C[C@@H]1CN([C@@H](C)CO)S(=O)(=O)c2ccc(-c3ccc(F)cc3)cc2O[C@H]1CN(C)C(=O)C1CCCCC1
entry no.	41	42	43	44	45	46	47	48
rRNA inh HTS	0	1	9	7	0	-5	2	-7
rRNA inh HTS OD600	-5	2	7	8	0	-1	1	-28
rRNA inh HTS RFP	4.6	0.8	1.7	1.8	-2.0	-2.8	-0.9	5.0

49	Cc1ccc(S(=O)(=O)NCC[C@@H]2CC[C@@H](NC(=O)CCN3CCCCC3)[C@@H](CO)O2)cc1
50	COc1cccc(C#Cc2ccc3c(c2)O[C@H](CN(C)C(=O)c2ccccn2)[C@@H](C)CN([C@H](C)CO)S3(=O)=O)c1
51	CO[C@H]1CC[C@@H]2CCOc3ccc(C#N)cc3C(=O)N(C)C[C@H](C)C(=O)N(C)C[C@H]1O2
52	O=C(N[C@H]1CC[C@H](CCn2cc(C3(O)CCCC3)nn2)O[C@H]1CO)C1CCCCC1
53	Cc1ccc(CNC(=O)c2ccc(S(=O)(=O)N3CCCC3)cc2)cc1
54	CN1C(=O)c2cc(NC(=O)Nc3ccc(F)cc3)ccc2OC[C@@H]2O[C@H](CC(=O)NC3CCC3)CC[C@@H]21
55	CCOC(=O)C1(C)CCCN(C(=O)CCc2ccccc2)C1 (stereo unspecified)
56	CN1c2ccc(-c3cccc(F)c3)cc2[C@H]2[C@H](CCN2C(=O)C2CCCC2)[C@@H]1CO
entry no.	49	50	51	52	53	54	55	56
rRNA inh HTS	-1	-11	4	1	-9	-2	2	-31
rRNA inh HTS OD600	-1	-26	11	0	-9	-3	2	-54
rRNA inh HTS RFP	0.4	2.6	-6.8	-2.2	-1.1	2.5	2.3	26

57	O=C1C(c2ccccc2)CN1Cc1ccccc1 (stereo unspecified)
58	O=C(C[C@H]1C=C[C@H](NC(=O)C2CCC2)[C@H](CO)O1)NCc1ccncc1
59	COC(=O)c1cc2c(c3c4cc(OC)ccc4n(S(=O)(=O)c4ccc(OC)cc4)c13)C(=O)N(Cc1ccccc1)C2
60	C/C=C/c1ccc([C@H]2[C@@H](CNC(C)C)N(c3nc(CC)cs3)[C@H]2CO)cc1
61	COCCN(C[C@H]1N[C@H](CO)[C@@H]1c1ccc(-c2ccc(F)cc2)cc1)C(C)=O
62	CCCCN(C)C(=O)c1sc(=O)n(Cc2c(C)noc2C)c1C
63	O=S(=O)(c1ccc(F)cc1)N1CCCCN2[C@@H](CO)[C@@H](c3ccc(C#CC4CC4)cc3)[C@@H]2C1
64	CCCN1[C@H](C(=O)N2CCOCC2)[C@@H](CO)[C@@H]2Cn3c(ccc(-c4ccccc4)c3=O)[C@@H]21
entry no.	57	58	59	60	61	62	63	64
rRNA inh HTS	9	2	7	-3	1	12	-42	0
rRNA inh HTS OD600	10	-3	10	-46	-2	5	-51	-1
rRNA inh HTS RFP	-1.9	-0.8	9.7	37	1.0	7.0	-6.3	-3.0

65	O=C(C[C@@H]1C=C[C@H](NC(=O)Cc2ccccn2)[C@@H](CO)O1)NCCCN1CCOCC1
66	COC(=O)[C@@H]1[C@@H](CO)[C@@H]2Cn3c(ccc(-c4ccccc4F)c3=O)[C@@H]2N1C(=O)c1ccccn1
67	CC1CCN(S(=O)(=O)c2cc(C(=O)N3CCN(c4ccccc4)CC3)ccc2Br)CC1
68	COc1ccc(CN(C)C[C@H]2OCCCC[C@@H](C)Oc3ccc(NS(=O)(=O)c4ccc(Cl)cc4)cc3C(=O)N([C@@H](C)CO)C[C@@H]2C)cc1
69	C[C@H]1CN([C@@H](C)CO)C(=O)c2cc(NC(=O)Nc3ccc(F)cc3)ccc2O[C@H]1CN(C)S(C)(=O)=O
70	CO[C@@H]1CN(C)C(=O)c2ccc(NC(=O)c3ccc(F)cc3)cc2OC[C@@H](C)N(C(=O)CN(C)C)C[C@@H]1C
71	C[C@H](CO)N1C[C@H](C)[C@H](CN(C)Cc2ccc(Oc3ccccc3)cc2)Oc2ccc(NS(C)(=O)=O)cc2C1=O
72	CCCNC(=O)c1cc(C2CCCCN2C(=O)c2ccc3c(c2)CCO3)on1 (stereo unspecified)
73	CO[C@H](CN(C)C(=O)Nc1ccc(F)cc1)[C@@H](C)CN(Cc1ccccc1Cl)[C@@H](C)CO
74	O=C(C[C@H]1C[C@@H]2c3cc(NC(=O)CC4CC4)ccc3O[C@@H]2[C@@H](CO)O1)NCc1ccncc1
75	COc1ccccc1-c1cnc2c(c1)C(=O)N([C@@H](C)CO)C[C@H](C)[C@@H](CN(C)Cc1ccc(C(=O)O)cc1)O2
entry no.	65	66	67	68	69	70	71	72	73	74	75
rRNA inh HTS	2	-1	-8	-37	-1	-1	-5	-3	0	2	0
rRNA inh HTS OD600	10	2	-11	-64	-1	3	-10	-7	1	0	4
rRNA inh HTS RFP	1.2	-1.3	14	24	-0.8	-1.1	0.2	-1.8	-3.4	1.5	-5.0

Not all compounds are listed, so the mix of outcomes need not match the whole.
